From PubChem BioAssay
Six1-Eya2 inh: Six1/Eya2 interaction inhibition; Q15475+O00167; AlphaScreen GST-Six1/His-Eya2 binding, biochemical; hits give low values; control for the full effect not named in the record; activity change, % (concentration not given with the values); 360,000 tested, 0.56% active; AID 651725; in the data active = activity change below about -65%; inconclusive = about -30% to -65%; inactive = above about -30%; further: on the % scale 0 is the no-effect control and ±100 the full control effect
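AlphaScreen luminescence read after one hour at 37 °C in darkness. Pin-transferred compounds met GST-Six1 and His-Eya2 protein (5X stock 250 nM/500 nM) plus glutathione donor and Ni-chelate acceptor beads (5X, 50 ug/mL).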
PINK1 expr mod: changes PINK1 expression. PINK1 immunofluorescence, high-content cytometry, 24 h. Potency, µM (titrated, usually from 76.6 µM), for the others: top-dose activation (PINK1 increase), usual class: activators. 410,000 tested, 0.2% active; active = well fitted activation curve with a large enough effect; inconclusive = small, poorly fitted or top-dose-only effect; inactive = flat fitted curve, though single readings scatter; cell line not stated here;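 further: potency means the concentration at half of the fitted maximal effect; % of control where 0% means no effect; nearly all actives have a fitted effect of over 65% in size; a mitochondrial uncoupler was the plate control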
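Cells are seeded, rested 12 hours, then given compound at five concentrations or DMSO for 24 hours. After fixation, blocking and antibody staining, PINK1 amount and mitochondrial localization are scored; CCCP serves as control.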
CtBP-E1A inh: CtBP/E1A binding inhibition. AlphaScreen GST-E1A/His-CtBP binding, 1536-well; hits give low values; control for the full effect not named in the record. activity change, % (no concentration beside the values). 340,000 tested, 0.49% active; in the data active means activity change below about -65%; inconclusive means about -30% to -65%; inactive means above about -30%; further: on the % scale 0 is the no-effect control and ±100 the full control effect; compound concentration not given in the record
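In 5 uL wells, 23 nL compound meets equimolar GST-E1A and His-CtBP (5X stock 125 nM each) for 2 h, 37 °C. Beads (5X, 50 ug/mL) then 1 h, 37 °C, dark.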
D2 agonist: activates the human D2 dopamine receptor; P14416; DiscoveRx PathHunter D2 beta-arrestin, luminescence, 90 min; 100% = 57 uM dopamine signal; activation, % (test concentration not listed); 360,000 tested, 0.084% active; in the data active = activation above about 40%; inconclusive = about 15% to 40%; inactive = below about 15%; further: compound concentration not given in the record; the text of the record calls up to 30% inactive
Target sequence (P14416 whole entry, looked up): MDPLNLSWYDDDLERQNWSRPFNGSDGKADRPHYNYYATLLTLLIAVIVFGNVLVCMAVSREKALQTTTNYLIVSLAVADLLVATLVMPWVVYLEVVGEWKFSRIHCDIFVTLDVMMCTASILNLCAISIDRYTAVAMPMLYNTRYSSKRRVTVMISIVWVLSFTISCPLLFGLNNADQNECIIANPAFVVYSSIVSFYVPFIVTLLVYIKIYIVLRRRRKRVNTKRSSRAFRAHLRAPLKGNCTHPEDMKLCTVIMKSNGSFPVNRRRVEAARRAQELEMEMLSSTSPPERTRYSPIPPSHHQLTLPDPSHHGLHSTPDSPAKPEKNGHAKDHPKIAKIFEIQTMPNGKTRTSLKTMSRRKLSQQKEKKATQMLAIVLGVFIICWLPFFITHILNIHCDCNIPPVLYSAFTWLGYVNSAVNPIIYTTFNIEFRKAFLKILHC
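Agonist mode: compounds alone added to overnight-plated D2 PathHunter cells for 90 min at 37 C, with 57 uM final dopamine (EC100) defining full response. Beta-arrestin recruitment detected by chemiluminescent reagent, read after 1 h at ambient temperature.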
Sfp inh: Sfp phosphopantetheinyl transferase inhibition; Q9F4F7; Biochemical Sfp PPTase activity, qHTS; Potency, µM, for inactives: max response, negative = inhibition, most hits filed as inhibitors; 310,000 tested, 3.5% active; AID 1490; active means well fitted inhibition curve with a large enough effect; inconclusive means small, poorly fitted or top-dose-only effect, or another doubt; inactive means no such curve, though single readings can be large or run the other way;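 further: the enzyme is Sfp with the accession as filed and its product quenches rhodamine fluorescence; potency means the concentration at half of the fitted maximal effect; 0% = enzyme reaction without inhibitor and -100% = no enzyme wells; top concentration of the series not given in the record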
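With Hepes-Na pH 7.6 buffer containing 10 mM MgCl2, Sfp (15 nM) modified BHQ-2-YbbR (12.5 uM) using rhodamine-CoA (5 uM). Two reads 30 minutes apart at 525/598 nm yielded each well's rate.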
D2 PAM: positive allosteric modulators of human D2 dopamine receptor | DiscoveRx D2 beta-arrestin cells, luminescence, 90 min; 100% = 57 uM dopamine signal | 360,000 tested, 0.23% active | AID 624464 | potentiation, % (test concentration not listed); active = potentiation of 50% or more; inconclusive = 30% to 50%; inactive = 30% or less;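 further: compound concentration not given in the record; tested on top of an EC20 dose of dopamine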
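D2 cells co-treated with compound plus 50 nM dopamine (EC20) for 90 min at 37 deg C to detect potentiation. Beta-arrestin recruitment was read as enzyme-fragment luminescence after 1 h at ambient temperature. Full response was set by 57 uM dopamine.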
TRPV1 potentiator: human TRPV1 potentiation; Q8NER1; TRPV1-expressing cells, Fluo-8 calcium influx, capsaicin EC20 potentiation; host cell line not named in the record; control for the full effect not named in the record; potentiation, % at 8.33 µM; 320,000 tested, 0.02% active; AID 540277; active means potentiation above 80%; inconclusive means 30% to 80%; inactive means below 30%; further: 0% is about no effect
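Cells expressing TRPV1 were dye-loaded with Fluo-8 and read kinetically: 10 s baseline, 3 min after compound (agonist portion), then 2 min after EC20 capsaicin (allosteric enhancer portion). Calcium-bound dye fluorescence at 480/520 nm.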
An asterisk follows results filed as active; ? = inconclusive; / = not tested or not shown; [ ] = remark or other dose. Rows were taken by chance; 3.7% or so of the library scored in one or more.

A first look:
Order of values – Six1-Eya2 inh	PINK1 expr mod	CtBP-E1A inh	D2 agonist	Sfp inh	D2 PAM	TRPV1 potentiator
> CN(C)Cc1ccccc1CNC(=O)c1ccc(Cl)c(S(=O)(=O)NC2CC2)c1
    6	0.3%	-1	-3.2	/	-22	/
> O=C(/C=C/c1ccccc1F)N1CCN(c2ccccn2)CC1
    -2	-1.9%	-6	-1.3	7%	4	-18
> Cc1cccc(CCNC(=O)c2nnc(Cc3ccc(Cl)cc3)o2)c1
    3	4.3%	1	-4.9	18%	-6	1

The list itself (from the top)
Order of values – Six1-Eya2 inh	PINK1 expr mod	CtBP-E1A inh	D2 agonist	Sfp inh	D2 PAM	TRPV1 potentiator
> CN(C)Cc1ccccc1CNC(=O)c1ccc(Cl)c(S(=O)(=O)NC2CC2)c1
    6	0.3%	-1	-3.2	/	-22	/
> O=C(/C=C/c1ccccc1F)N1CCN(c2ccccn2)CC1
    -2	-1.9%	-6	-1.3	7%	4	-18
> Cc1cccc(CCNC(=O)c2nnc(Cc3ccc(Cl)cc3)o2)c1
    3	4.3%	1	-4.9	18%	-6	1
> CC(C)c1c(C(=O)N/N=C/c2ccc(Cl)cc2Cl)nnn1-c1nonc1N
    8	7.6%	/	4.1	16%	-6	-10
> COc1ccc(-c2cc(C(=O)N3CCCCC3)c3ccccc3n2)cc1OC
    -9	1.2%	-25	1.9	4%	-2	-11
> COc1ccc(NC(=O)Nc2ccc3c(c2)CCC3)cc1
    17	7.4%	0	-5.5	8%	3	-5
> COc1cc(C2=NOC(C(=O)NC3CCCCC3)C2)cc(OC)c1OC (centres undefined)
    0	-0.2%[38.3 µM]	1	-2.4	-3%	-5	-22
> CCCCCCCCOc1ccc(C2CC(=O)NC2=O)cc1 (centres undefined)
    1	4.5%	/	-3.9	17%	-9	-3
> Cc1cc(C(=O)OCC(=O)NCc2ccco2)c(C)n1-c1ccc(F)cc1
    -19	3.9%	-4	-1.2	?	-1	0
> CCCCn1c(N)c(N(CC)C(=O)CSCC(=O)Nc2ccc(OC)cc2)c(=O)[nH]c1=O
    7	-3.1%	4	0.1	/	-1	-7
> COCCC(=O)Nc1ccc2c(c1)CN(C(=O)CCSC)CC2
    3	-0.1%	1	-1.5	11%	-4	2
> CCN1CC(CN(C)Cc2cn(-c3cccc(C)c3)nc2-c2cccc(F)c2)CC1=O (centres undefined)
    -12	-0.8%	1	-1.0	-14%	-17	6
> Cc1ccc(-c2nnn(CC(=O)N3c4ccccc4CCc4ccccc43)n2)cc1
    -9	/	2	0.4	13%	-11	17
> CN(CC(=O)Nc1ccc(F)cc1)C(=O)c1ccc(OCc2cn3ccccc3n2)cc1
    3	-0.9%	-3	-2.1	/	-5	/
> CCOC(=O)C1C(=O)C=C(Nc2ccccc2F)CC1c1ccccc1 (centres undefined)
    13	0.6%	3	-5.0	3%	-11	-16
> Cc1ccc(S(=O)(=O)N2CCC(=O)N([C@H](COCc3ccc(Cl)cc3Cl)Cc3ccccc3)CC2)cc1
    0	-0.4%	-11	/	/	/	/
> Cc1ccc(NC(=O)C2CCCN(S(=O)(=O)c3c(C)noc3C)C2)c(Br)c1 (centres undefined)
    3	0.8%	-20	3.5	1%	-5	25
> CCN(C(=O)COC(=O)CNC(=O)c1ccc(F)cc1)C1CCS(=O)(=O)C1 (centres undefined)
    9	4.8%	6	3.2	15%	-18	0
> CCC(=C(c1ccc(O)cc1)c1ccc(OCCN(C)C)cc1)c1ccccc1
    -2	2.2%	-8	-5.0	/	0	/
> Cc1cccc(-n2c(C)cc(/C=N/NC(=O)c3ccc(CN4CCOCC4)cc3)c2C)c1
    -4	-0.1%[38.3 µM]	5	0.2	1%	-14	-5
> COc1ccc(C2C(C#N)=C(N)Oc3c2oc(CO)cc3=O)cc1 (centres undefined)
    -1	0.4%	0	-8.5	56µM*	-4	-28
> Cc1ccc(NC(=O)COC(=O)c2nn(C)c(=O)c3ccccc23)cc1F
    -1	0.4%	7	2.5	/	-2	/
> O=C1C=C(c2ccc3[nH]ccc3c2)CCC1
    2	2.5%	-1	-1.4	/	-12	/
> COc1ccc(NCc2nnc(SCC(=O)Nc3ccc(OC)cc3OC)o2)cc1
    -5	-3.4%	-12	-4.8	2%	-5	0
> O=C(Nc1ccccc1C(=O)NC(Cc1ccc(O)cc1)C(=O)O)c1ccccc1 (centres undefined)
    12	1.4%	3	-2.3	13%	-4	-5
> CCCOc1ccc(N2C(=O)CC(N3CCCC(C(=O)N4CCCC4)C3)C2=O)cc1 (centres undefined)
    6	-0.1%	-6	-2.0	11%	-3	-3
> O=C(NCCO)c1cccc2c1-c1ccccc1C2=O
    2	6.5%	3	-0.4	5%	3	0
> Cc1n(-c2ccccc2)c2ccc(Cl)cc2[n+]1CCO
    5	3.5%	0	-4.3	-9%	-11	5
> O=C1CCCc2ccccc2N1Cc1cccc(F)c1
    8	5.9%	8	8.4	-5%	-3	0
> O=C(Nc1cccc([N+](=O)[O-])c1)NN1CCCCCC1
    1	?	-1	-3.1	/	-12	/
> O=[N+]([O-])c1ccc(C=NN2CCCCCC2)cc1
    ?	1.0%	?	-2.9	/	-19	/
> COc1ccc(Br)cc1C1Nc2ccccc2C(=O)N1NC(=O)c1ccncc1 (centres undefined)
    6	-1.4%	12	-1.1	8%	-36	4
> COc1ccc(-c2nc3ccccc3c(C(=O)Nc3ccc(S(=O)(=O)Nc4cc(C)on4)cc3)c2C)cc1
    1	-0.5%	-13	-2.5	-8%	-2	9
> CN(c1ccccc1)c1nc(N)c([N+](=O)[O-])c(Nc2ccc(F)cc2)n1
    -11	9.0%	/	-0.2	-6%	-1	2
> C[C@H](CO)N1C[C@H](C)[C@@H](CN(C)C(=O)Nc2ccccc2)Oc2ccc(NC(=O)Nc3ccc(C(F)(F)F)cc3)cc2C1=O
    -18	-1.3%	-8	1.3	/	-5	/
> Cc1noc(C)c1CSc1nc2ccccc2nc1NS(=O)(=O)c1ccc(Cl)cc1
    0	?	-4	3.4	5%	7	-2
> CCOC(=O)c1c(-c2ccc(-c3ccccc3)cc2)csc1NC(=O)c1cccc(N2C(=O)CCC2=O)c1
    0	1.8%	-9	-6.0	?	-8	9
> CCN(CC(=O)NCc1cccs1)C(=O)c1ccc(-c2ccc(F)cc2)o1
    -14	3.7%	/	-1.9	/	-6	/
> NC(=O)N1CCCC1C(=O)Nc1ccc(Cl)c(Cl)c1 (centres undefined)
    5	3.1%	-6	-0.9	18%	-15	-2
> c1ccc2c(NCC3CCCO3)nc(-c3ccncc3)nc2c1 (centres undefined)
    -1	-0.5%	-1	2.6	12%	11	-22

Some of these compounds in order of the Sfp inh value, high to low.
SMILES | Sfp inh
O=C(Nc1ccccc1C(=O)NC(Cc1ccc(O)cc1)C(=O)O)c1ccccc1 (centres undefined) | 13%
O=C(NCCO)c1cccc2c1-c1ccccc1C2=O | 5%
O=C1CCCc2ccccc2N1Cc1cccc(F)c1 | -5%

More compounds
Order of values – Six1-Eya2 inh	PINK1 expr mod	CtBP-E1A inh	D2 agonist	Sfp inh	D2 PAM	TRPV1 potentiator
> CCO[C@@H]1OC(C(=O)N2CCN(Cc3ccc4c(c3)OCO4)CC2)=C[C@H](c2cn(C(C)=O)c3ccccc23)[C@H]1CCCO
    -12	-0.3%	-7	0.9	4%	-11	-7
> Cc1cccc(NC(=O)CSc2nc3ccccc3o2)c1
    6	-0.3%	0	0.5	-9%	-10	-2
> Cc1ccc(NC(=O)c2ccco2)c(NC(=O)c2ccccc2)c1
    12	-0.5%	2	-0.2	-4%	-10	-22
> CCN1C(=O)c2ccccc2S(=O)(=O)c2ccc(C(=O)NCC(OC)OC)cc21
    -3	0.9%	-21	2.6	-2%	-8	6
> CCSc1nnc(NC(=O)C(C(F)(F)F)C(F)(F)F)s1
    -1	-3.4%[38.3 µM]	2	0.6	4%	-3	0
> OCCN(Cc1ccccc1)c1ncnc2sccc12
    4	-0.4%	2	-3.7	10%	-3	5
> Cc1ccc(-n2nc(C)c3c(C)c(CCC(=O)NCC4CCCO4)c(=O)n(C)c32)cc1 (centres undefined)
    0	9.6%	/	-0.1	11%	-12	-1
> COc1ccccc1NC(=O)c1cc(Sc2nncn2C)nc2ccccc12
    -5	3.9%	1	-4.6	1%	-11	-20
> O=C(CSc1nnc(-c2ccccc2O)o1)N1CCc2ccccc2C1
    -1	4.0%[38.3 µM]	3	-4.7	5%	-4	8
> Nc1n[nH]c(N)c1N=Nc1ccccc1
    -13	0.6%	-5	2.7	18%	4	?
> COc1ccc(OCC(O)CN2CCc3ccccc3C2)cc1 (centres undefined)
    0	-1.9%	1	-0.1	0%	-34	-5
> CCOC(=O)c1ccc(-c2ccc(/C=N/NC(=O)Cc3nnc(N)s3)o2)cc1
    -3	7.4%	0	0.8	-29%	-1	-1
> CCOc1ccccc1N=Nc1c(C)[nH]n(C(N)=S)c1=O
    -4	14%	-1	-3.8	-22%	2	16
> Cc1[nH]c2ccccc2c1C(=O)C(=O)NCC1CCCO1 (centres undefined)
    -9	-0.3%	0	2.8	24%	16	4
> O=C(CCc1ccccc1)N=C1SC2CS(=O)(=O)CC2N1c1ccccc1 (centres undefined)
    3	0.1%	/	1.8	5%	-5	-9
> COc1ccc2c(Cl)c(C(=O)N/N=C/c3ccc4c(c3)OCO4)sc2c1
    0	2.0%	-2	-1.2	?	-1	?
> CCOC(=O)N1CCN(C(=O)COC(=O)CN(C)S(=O)(=O)c2ccc(NC(C)=O)cc2)CC1
    3	-0.6%	-1	-2.9	21%	-2	-14
> CC1(C)CC2CC(C)(CN2C(=O)C23CCC(C)(C(=O)O2)C3(C)C)C1 (centres undefined)
    5	/	13	-1.4	5%	-1	-13
> Cc1noc(C)c1CSCC(=O)Nc1cc(S(=O)(=O)N2CCOCC2)ccc1OCC(F)(F)F
    -3	1.8%	9	2.8	/	-15	0
> COc1ccc(NC(=O)CNC(=O)c2c(C)nn(C)c2Cl)cc1
    2	1.3%	5	-1.2	24%	-2	19
> CN(C)C(CNC(=O)c1cccc(S(=O)(=O)Nc2ccc(SC(F)F)cc2)c1)c1ccccc1 (centres undefined)
    -1	0.8%	-7	-0.8	/	-5	/
> COCCN(Cc1cc2ccc(C)cc2n2nnnc12)Cc1nnnn1C(C)(C)C
    -3	-0.9%	6	-2.1	9%	13	1
